Source: PubChem BioAssay (several laboratories)
UCH37 DUB inh: inhibitors of human UCH37 deubiquitinase, primary screen, biochemical, Ub-AMC cleavage, fluorescence; purified proteasome/UCH37; inhibition, % (test concentration not listed); 0.33% of 330,000 active; AID 588478, 2011;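 active means mean of two replicates above 20%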;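 further: 0% = compound-free wells with enzyme and 100% = wells lacking proteasome; stock transfer was 100 nL into about 20 µL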
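Material: Human UCH37 enzyme supplied as purified proteasome complex | Schedule: 30 min compound-proteasome preincubation then 25 min substrate reaction, room temperature | Detection: AMC fluorescence from Ub-AMC cleavage, excitation 355 nm, emission 460 nm | Benchmarks: Wells without proteasome as full block, compound-free enzyme plus substrate as uninhibited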
LANA-H2B inh: blockers of LANA interaction with H2A/H2B – biochemical, FP readout, HTS, primary screen; Protein LANA1 (Human herpesvirus 8 type P (isolate GK18)), Q9QR71; cell-free LANA-H2A/H2B peptide, fluorescence polarization; inhibition, % (concentration not given with the values); 0.6% of 320,000 active; AID 2629, 2010; in the data active means inhibition mostly above about 10%, no sharp cut-off; inactive means mostly below about 6.7%;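 further: stock transfer was 7.5 nL into about 10 µL; 0% = median of vehicle wells and 100% = median of positive control wells; one replicate is shown; the record names a cut of 25% in any replicate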
A1 inh: caspase 3/7 activation in MEF A1-2A-BIM cells, primary screen, A1 inhibitor project, cell-based, luminescence, HTS; caspase activation, % (no concentration beside the values); 0.066% of 330,000 active; Caspase-Glo 3/7 luminescence, 3 h; percent of clofoctol response, vehicle zero;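 active means over half of replicate activation scores above 10%, or exactly half above 10 with the replicate mean above 10; inconclusive means replicate mean below 10 yet half the replicates above 10; inactive means over half of replicates below 10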;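 further: wells of about 30 µL received 50 nL stock; many hits fall short of the cut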
B2AR ag: beta2AR agonists driving receptor internalization, primary screen, cell-based, FAP fluorogen, flow cytometry; 0.43% of 340,000 active; Am2.2-beta2AR cells; reference of the scale not given here; response, % (no concentration beside the values);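 active means response above a set limit, near 3 SD of response in nonfluorescent compounds, cut at about 42% in these data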;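 further: stock transfer was 100 nL into about 11 µL; a reference agonist was the positive control; negative values mostly stem from fluorescent compounds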
Target sequence (P07550 whole entry, looked up): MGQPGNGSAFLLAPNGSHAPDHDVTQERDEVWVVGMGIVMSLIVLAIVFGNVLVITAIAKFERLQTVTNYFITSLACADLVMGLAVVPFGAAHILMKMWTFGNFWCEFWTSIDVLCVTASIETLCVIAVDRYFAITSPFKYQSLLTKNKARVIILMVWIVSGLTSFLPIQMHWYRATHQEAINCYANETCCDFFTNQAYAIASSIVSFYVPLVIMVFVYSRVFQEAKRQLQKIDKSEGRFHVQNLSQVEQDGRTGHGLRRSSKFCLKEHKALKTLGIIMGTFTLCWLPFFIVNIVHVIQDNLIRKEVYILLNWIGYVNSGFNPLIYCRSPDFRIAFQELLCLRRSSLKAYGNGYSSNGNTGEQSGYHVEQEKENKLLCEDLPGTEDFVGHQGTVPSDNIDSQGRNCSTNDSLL
Vif TR-FRET: inhibitors of Vif binding to APOBEC3G peptide, primary screen, biochemical, TR-FRET, GST-Vif 1-94, biotin-A3G peptide, dose response retest (AID 1117319); TR-FRET GST-Vif / biotin-A3G peptide binding; higher % means a stronger effect; test concentration not given here; strong numbers were not always called active; one-dose inhibition, %; IC50 in µM for titrated hits; 0.57% of 260,000 active;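 active means above the screen mean plus three standard deviations and confirmed in dose response; inconclusive means results disagree or hit not tested in dose response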;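 further: Vif residues 1-94 fused to GST binding biotinylated APOBEC3G peptide 110-148; 0% = full assay without inhibitor and 100% = GST in place of GST-Vif; retest series ran down from 100 µM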
HNF4A DNA FP: change in binding of human HNF4A to DNA, primary screen, biochemical, fluorescence polarization, FITC-DNA. Hepatocyte nuclear factor 4-alpha (Homo sapiens), P41235. 1 h. activity change, % at 10 µM. 0.3% of 360,000 active. AID 1224865, 2016; in the data active means activity change above about 30%, passing the limit was not always enough;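 further: controls were the assay level and a saturating level of protein; the project sought stronger binding though the title names inhibitors; some compounds called inactive have numbers as strong as hits; positive values seem to mean higher polarization but the record does not say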
Target sequence (P41235 whole entry, looked up): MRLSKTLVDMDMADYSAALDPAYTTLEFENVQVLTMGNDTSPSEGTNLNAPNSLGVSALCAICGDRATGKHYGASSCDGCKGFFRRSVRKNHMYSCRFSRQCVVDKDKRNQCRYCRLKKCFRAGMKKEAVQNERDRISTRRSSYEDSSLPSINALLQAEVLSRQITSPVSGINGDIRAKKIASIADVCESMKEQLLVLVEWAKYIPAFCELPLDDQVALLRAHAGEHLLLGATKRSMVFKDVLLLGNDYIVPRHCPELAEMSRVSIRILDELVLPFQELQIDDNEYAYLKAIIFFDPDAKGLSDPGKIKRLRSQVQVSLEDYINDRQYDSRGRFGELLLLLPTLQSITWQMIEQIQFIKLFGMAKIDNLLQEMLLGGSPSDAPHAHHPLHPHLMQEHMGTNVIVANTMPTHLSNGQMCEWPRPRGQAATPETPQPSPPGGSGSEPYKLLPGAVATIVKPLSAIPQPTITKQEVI
Ecoli growth: E. coli growth inhibition, primary screen, OD600; Escherichia coli growth, 23 h; stronger effect = lower value; OD600 absorbance (test concentration not listed); 0.21% of 330,000 active; AID 1053175, 2014;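 active means OD600 absorbance below the run mean of sample wells minus 3.6 SD, in any replicate, cut at about 0.56 in these data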;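 further: stock transfer was 300 nL into about 60 µL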
Numbers without * were called inactive; ? = inconclusive; nt = not tested or not shown; & = joins results of further samples.

nr	SMILES	UCH37 DUB inh	LANA-H2B inh	A1 inh	B2AR ag	Vif TR-FRET	HNF4A DNA FP	Ecoli growth
1	COc1cccc(NC(=O)CCS(=O)(=O)c2cc3c(cc2Cl)NC(=O)CO3)c1	-0.3	0.6	0.0	-2.8	nt	0.5	0.662
2	Cc1ccc(NC(=S)NCc2cccn2C)cc1	0.7	3.0	1.2	2.1	3.6%	4.1	0.676
3	COc1cc(C=O)ccc1OCc1ccc(Cl)nc1	4.1	-0.7	-2.4	-1.3	6.4%	0.2	0.714
4	COc1ccc(C2/C=C\CN(C(=O)Nc3ccccc3-c3ccccc3)CC(=O)N2Cc2ccc(F)cc2)cc1 (stereo not drawn)	3.3	0.5	-0.6	0.7	-2.4%	8.5	nt
5	CNC(=O)c1cnc(-c2ccccc2)nc1-c1ccccc1	3.1	-0.4	1.0	-5.8	-2.5%	-2.5	0.683
6	O=C(CN1CCOCC1)Nc1ncc(Br)cc1Br	-0.5	-0.4	-3.6	4.6	1.2%	-0.2	0.77
7	CC(=O)c1c(C)[nH]c(C(=O)NC2CCCCC2)c1C	1.3	1.6	0.1	-5.5	-1.0%	1.8	0.715
8	CN1CCN(c2ccc(-c3cccc(NC(=O)COc4ccc(Cl)cc4)c3)nn2)CC1	8.9	1.6	-2.4	5.0	-4.2%	1.7	0.63

nr	SMILES	UCH37 DUB inh	LANA-H2B inh	A1 inh	B2AR ag	Vif TR-FRET	HNF4A DNA FP	Ecoli growth
9	CN1C(=O)c2ccc(C(=O)NCc3ccccn3)cc2C1=O	2.7	3.7	-0.5	0.8	nt	-2.1	0.678
10	Cc1oc2c(cc(NS(=O)(=O)c3cccs3)c3ccccc32)c1C(=O)OC(C)C	2.7	-3.3	-1.1	10.3	15.0%	2.8	0.713
11	C=CCn1c(SCC(=O)c2[nH]c(C)c(C(=O)OCC)c2C)nc2scc(-c3ccc(OC)cc3)c2c1=O	0.5	nt	nt	19.5	8.6%	5.7	0.742
12	O=C1Nc2ccccc2C1=Nc1ccc(-c2nnc3n2CCCCC3)cc1	0.7&0.4	1.3	-0.4	3.3&4.8	6.6%&11.8%	-2.0&0.3	0.67
13	CCOC(=O)c1ccc(S(=O)(=O)N2CCN(Cc3cc4c(cc3O)OCO4)CC2)cc1	1.1	2.3	-0.3	7.0	nt	1.4	0.67
14	CCN(C(=O)c1c(N)cnn1C)c1ccccc1	-0.7	5.1	0.0	-14.5	5.9%	-1.9	0.69
15	Cc1cc(C)c(S(=O)(=O)N2CCC(C(=O)NCc3ccco3)CC2)c(C)c1	6.8	1.0	0.7	1.1	0.0%	2.9	0.708
16	CC(=O)N1c2ccc(S(=O)(=O)NCCC(=O)NC3CCCC(C)C3C)cc2CC1C (stereo not drawn)	4.9	-3.0	-1.0	13.8	nt	0.1	0.686

The last 5 compounds of the section above come first, to join the parts:
nr	SMILES	UCH37 DUB inh	LANA-H2B inh	A1 inh	B2AR ag	Vif TR-FRET	HNF4A DNA FP	Ecoli growth
12	O=C1Nc2ccccc2C1=Nc1ccc(-c2nnc3n2CCCCC3)cc1	0.7&0.4	1.3	-0.4	3.3&4.8	6.6%&11.8%	-2.0&0.3	0.67
13	CCOC(=O)c1ccc(S(=O)(=O)N2CCN(Cc3cc4c(cc3O)OCO4)CC2)cc1	1.1	2.3	-0.3	7.0	nt	1.4	0.67
14	CCN(C(=O)c1c(N)cnn1C)c1ccccc1	-0.7	5.1	0.0	-14.5	5.9%	-1.9	0.69
15	Cc1cc(C)c(S(=O)(=O)N2CCC(C(=O)NCc3ccco3)CC2)c(C)c1	6.8	1.0	0.7	1.1	0.0%	2.9	0.708
16	CC(=O)N1c2ccc(S(=O)(=O)NCCC(=O)NC3CCCC(C)C3C)cc2CC1C (stereo not drawn)	4.9	-3.0	-1.0	13.8	nt	0.1	0.686
17	O=C(Nc1ccc(Cl)cc1)Nc1ccc(N2CCOCC2)cc1	4.8	6.6	-3.9	1.1	19.9%	-2.5	0.759
18	Cc1ccc(Cl)cc1N1CCN(C(c2cccnc2)c2nnnn2C2CCCCC2)CC1 (stereo not drawn)	2.8	0.2	-0.1	3.5	-3.1%&-3.3%	3.3	0.746
19	COCCCNC(=O)CC1C(=O)N(Cc2ccccc2)C(C)c2nc3ccccc3n21 (stereo not drawn)	1.7	-1.3	0.3	2.6	4.4%	-0.6	0.703
20	CCOC(=O)N1CCN(C(=O)CSc2nnc3[nH]c(=O)c(C)c(C)n23)CC1	-0.8	-1.9	0.4	-0.4	6.2%	2.6	0.692
21	CCCCn1c(N)c(N(CCOC)C(=O)CSc2nnc(-c3ccc(F)cc3)n2N)c(=O)[nH]c1=O	0.7	1.6	?	-2.4	6.2%	10.2	0.683
22	CCOC(=O)c1ccc(COC(=O)c2cc3ccccc3oc2=O)o1	-15.6	-1.5	-0.7	6.4	12.8%	-3.2	0.742
23	CCOC(=O)C1CCN(C(=O)c2ccccc2NC(=O)c2ccc(Cl)cc2)CC1	1.0	0.5	0.2	5.9	1.1%	-5.0	0.691
24	CC(=O)N1CCC(N(C(=O)Nc2c(F)cccc2F)C(C)C)CC1	3.7	8.8	-0.2	0.5	2.4%	-1.2	0.719

nr	SMILES	UCH37 DUB inh	LANA-H2B inh	A1 inh	B2AR ag	Vif TR-FRET	HNF4A DNA FP	Ecoli growth
25	CC1CC(C)CN(C(=O)C(NS(=O)(=O)c2ccc3c(c2)oc(=O)n3C)C(C)C)C1 (stereo not drawn)	3.8	3.6	-0.1	-26.3	?	-2.8	0.751
26	O=C(O)c1ccc2c(c1)C(=O)N(c1ccccc1-c1ccccc1)C2=O	0.8	-3.0	0.8	1.7	13.4%	-1.5	0.668
27	COc1ccc(NS(=O)(=O)c2cccc(NC(=O)CCC(=O)c3cccs3)c2)cc1	0.1	2.1	-0.6	1.1	?	-2.1	0.696
28	COc1ccccc1N1C(=O)CC(Sc2nccc(C)n2)C1=O (stereo not drawn)	-0.2	-8.7	-0.8	-11.4	72.2%	-4.8	0.651
29	COc1ccc2[nH]c(C(=O)O)c(NS(=O)(=O)c3ccc(OC)c(OC)c3)c2c1	-10.4	1.6	1.4	0.1	6.5%	0.7	0.697
30	COc1ccccc1NC(=O)CSc1nnc(C)n1Cc1ccccc1	5.8	-3.2	0.5	4.0	-6.0%	-0.9	0.724
31	COc1ccc(C2=NOC(C)(c3nnc(-c4ccncc4)o3)C2)cc1 (stereo not drawn)	0.4	-0.6	0.3	-4.0	nt	-2.6	0.617
32	Cc1ccc(NC(=O)C2CCN(S(=O)(=O)c3cccc4nonc34)CC2)cc1	2.4	1.1	0.1	3.4	nt	4.6	0.684

A draw from above in order of molecular weight, rising.
nr	SMILES	UCH37 DUB inh	LANA-H2B inh	A1 inh	B2AR ag	Vif TR-FRET	HNF4A DNA FP	Ecoli growth
9	CN1C(=O)c2ccc(C(=O)NCc3ccccn3)cc2C1=O	2.7	3.7	-0.5	0.8	nt	-2.1	0.678
22	CCOC(=O)c1ccc(COC(=O)c2cc3ccccc3oc2=O)o1	-15.6	-1.5	-0.7	6.4	12.8%	-3.2	0.742
12	O=C1Nc2ccccc2C1=Nc1ccc(-c2nnc3n2CCCCC3)cc1	0.7&0.4	1.3	-0.4	3.3&4.8	6.6%&11.8%	-2.0&0.3	0.67
23	CCOC(=O)C1CCN(C(=O)c2ccccc2NC(=O)c2ccc(Cl)cc2)CC1	1.0	0.5	0.2	5.9	1.1%	-5.0	0.691

(listing goes on)
nr	SMILES	UCH37 DUB inh	LANA-H2B inh	A1 inh	B2AR ag	Vif TR-FRET	HNF4A DNA FP	Ecoli growth
33	NS(=O)(=O)c1ccc(N/N=C/c2ccccn2)c([N+](=O)[O-])c1	nt	1.2	-1.9	-26.6	5.2%	1.0	nt
34	O=C(Nc1ccc(F)cc1F)c1ccccc1-c1ccccc1	4.4	0.0	0.8	-1.3	nt	-1.8	0.654
35	CCCC1(C)SC(NC(C)=O)=NN1C(C)=O (stereo not drawn)	0.7	-2.3	1.2	2.5	-4.2%	-0.3	0.677
36	Cc1ccc(C(=O)NCCSc2ccc(Cl)cc2)cc1[N+](=O)[O-]	6.5	-0.5	2.0	1.3	5.4%	-2.4	0.736
37	O=C(CNc1ccc(C(F)(F)F)cc1[N+](=O)[O-])OCC(=O)c1ccccc1	1.1	-3.9	-0.2	0.1	-3.6%	-1.7	0.683
38	O=C(CCC(=O)c1ccc(Cl)cc1)OCc1nc2ccsc2c(=O)[nH]1	-0.5	0.6	0.1	2.9	-11.4%	1.4	0.703
39	S=C(NCCCn1ccnc1)Nc1ccc(Cl)cc1Cl	3.3	0.4	-0.2	-4.8	-4.0%	1.6	0.689
40	O=C(O)c1cc(S(=O)(=O)Nc2ccc3cn[nH]c3c2)ccc1Cl	2.9	-1.9	0.2	1.0	nt	-7.1	0.701

nr	SMILES	UCH37 DUB inh	LANA-H2B inh	A1 inh	B2AR ag	Vif TR-FRET	HNF4A DNA FP	Ecoli growth
41	Cc1cccc(N(O)C(=O)Nc2cccc(Cl)c2)c1	-0.7	2.5	-5.5	-5.8	-6.3%	0.2	0.505
42	Cc1cccc(N2CCN(C(=O)c3ccc4c(c3)OCCO4)CC2)c1C	1.1	2.2	0.0	3.7	10.7%	-2.5	0.671
43	CN1C(=O)c2ccccc2Sc2ccc(NC(=O)N3CCCC3)cc21	1.5	-0.7	0.3	-4.8	-2.8%	-1.8	0.676
44	CCCOc1c(Br)cc(C(=O)NCC)cc1OC	3.7	2.8	-0.1	-7.3	3.7%	0.2	0.779
45	CC(CCN1C(N(C)C)=NC[C@@H]1C)c1ccccc1 (stereo partly drawn)	4.7	4.9	0.9	0.4	nt	-0.6	nt
46	O=C(NCc1ccccc1)Nc1cccn(Cc2ccccc2F)c1=O	1.1	3.3	-0.6	5.8	nt	-0.5	0.643
47	Cc1cccc(C)c1OCC(=O)Nc1cccc(-c2nnc(-c3ccccc3)o2)c1	-4.2	9.0	0.4	17.9	-5.6%	2.9	0.735
48	COc1ccc(N2C(=O)C(CC(=O)O)S/C2=N\N=C\c2cccs2)cc1 (stereo not drawn)	nt	-3.0	0.8	-3.9	nt	-2.5	nt

nr	SMILES	UCH37 DUB inh	LANA-H2B inh	A1 inh	B2AR ag	Vif TR-FRET	HNF4A DNA FP	Ecoli growth
49	O=C(Cc1ccc2c(c1)OCCO2)Nc1cc(C(F)(F)F)ccc1N1CCOCC1	1.1	nt	nt	1.1	-2.5%	2.9	0.642
50	CCC(=O)c1ccc(-c2ccccc2)cc1	-5.0	3.0	-2.6	4.1	nt	1.1	0.67
51	CS(=O)(=O)N(CCc1ccccc1)CC(=O)N1CCN(Cc2ccccc2)CC1	2.1	-0.4	0.6	-8.5	19.8%	-3.5	0.725
52	c1ccc(Cc2nnc3n2N=C(c2ccccc2)CS3)cc1	1.0	2.6	0.4	-22.1	nt	-1.9	0.616
53	O=C(NCCCl)NNc1c(Cl)cc(Cl)cc1Cl	4.6	2.0	0.0	-10.9	nt	-1.9	0.652
